Assay outcomes deposited in PubChem by National Center for Advancing Translational Sciences (NCATS).
gsp agonist: activates gsp, the McCune-Albright syndrome mutation. gsp mutant cells, cAMP HTRF, 30 min; control for the full effect not named in the record. Potency, µM (top dose mostly 76.9 µM), without a hit: top-dose activation (cAMP increase), most hits filed as activators. 340,000 tested, 0.13% active; active = well fitted activation curve with a large enough effect; inconclusive = small, poorly fitted or top-dose-only effect, or another doubt; inactive = no such curve, though single readings can be large or run the other way; cell line not stated here;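 note: phosphodiesterase inhibitor Ro 20-1724 added with compounds to block cAMP breakdown; potency is the fitted concentration of half-maximal effect; nearly all actives have a fitted effect of over 60% in size; about a fifth of the inactives were tested at one dose only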
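Cells in DMEM/10% FBS with G418 were pretreated with compounds in DMSO plus […] (300 uM stock) for 30 min at 37C. cAMP was measured by HTRF (cAMP-d2 plus anti-cAMP antibody-K) after 30 min at room temperature.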
TRPV1 potentiator: potentiators of human vanilloid receptor 1 (TRPV1) | Q8NER1 | TRPV1-expressing cells, Fluo-8 calcium influx, capsaicin EC20 potentiation; host cell line not named in the record; control for the full effect not named in the record | potentiation, % at 8.33 µM | 320,000 tested, 0.02% active | AID 540277; active means potentiation above 80%; inconclusive means 30% to 80%; inactive means below 30%; note: 0% is about no effect
Target sequence (Q8NER1 whole entry, looked up): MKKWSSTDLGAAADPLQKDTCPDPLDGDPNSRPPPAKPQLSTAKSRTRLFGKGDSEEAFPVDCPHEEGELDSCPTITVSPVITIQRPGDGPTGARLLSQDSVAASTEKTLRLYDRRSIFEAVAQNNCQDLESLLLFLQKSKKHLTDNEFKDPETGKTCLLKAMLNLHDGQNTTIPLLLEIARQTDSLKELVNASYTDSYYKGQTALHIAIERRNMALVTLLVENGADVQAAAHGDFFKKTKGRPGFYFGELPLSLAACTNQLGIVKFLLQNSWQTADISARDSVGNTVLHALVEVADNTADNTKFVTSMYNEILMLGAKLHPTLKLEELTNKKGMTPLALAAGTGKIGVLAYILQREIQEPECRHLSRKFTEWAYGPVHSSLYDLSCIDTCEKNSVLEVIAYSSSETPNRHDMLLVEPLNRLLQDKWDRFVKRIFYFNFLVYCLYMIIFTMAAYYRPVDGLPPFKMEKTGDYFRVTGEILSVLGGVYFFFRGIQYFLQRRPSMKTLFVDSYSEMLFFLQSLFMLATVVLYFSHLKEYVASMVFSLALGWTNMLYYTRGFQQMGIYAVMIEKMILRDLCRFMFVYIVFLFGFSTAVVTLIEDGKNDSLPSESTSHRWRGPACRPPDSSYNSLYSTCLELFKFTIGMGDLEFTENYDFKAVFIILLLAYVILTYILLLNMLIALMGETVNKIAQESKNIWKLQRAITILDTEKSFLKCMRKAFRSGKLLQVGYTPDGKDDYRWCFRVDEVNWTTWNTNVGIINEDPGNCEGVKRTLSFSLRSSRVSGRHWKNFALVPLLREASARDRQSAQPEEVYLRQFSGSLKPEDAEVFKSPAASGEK
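TRPV1-expressing cells were cultured overnight at 35.5C and loaded with Fluo-8 calcium dye for 40 to 90 min at room temperature. After a 10 s baseline, compound was added and calcium influx was read kinetically for 3 min (ex 480/em 520 nm).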
gsp antag: antagonists of gsp mutant (McCune-Albright syndrome); Potency, µM (doses to about 76.9 µM), for inactives: at the top dose activity change, negative = inhibition, hits mostly inhibitors; 340,000 tested, 0.4% active; AID 624288; gsp-mutant cells, cAMP HTRF, 30 min; control for the full effect not named in the record; active = falling curve of any shape with a large fitted effect; inconclusive = falling curve, mostly with a smaller effect; inactive = flat or rising curve; cell line not stated here;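 note: intracellular cAMP measured with PDE inhibitor Ro 20-1724 present during compound exposure; potency is the fitted concentration of half-maximal effect; % is set by controls: 0 for no effect and ±100 for the full control effect; nearly all actives have a fitted effect of over 65% in size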
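Cells in G418 medium, seeded 16-24 h, 37C; buffer exchange to DPBS + 1 mM CaCl2, 0.5 mM MgCl2, 0.05% BSA; cpds in DMSO + […] (300 uM stock), 30 min 37C; HTRF cAMP detection.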
Sfp PPTase inh: blocks B. subtilis Sfp PPTase activity. Q9F4F7. Biochemical Sfp PPTase activity, qHTS. Potency, µM, for inactives: max response, negative = inhibition, most hits filed as inhibitors. 310,000 tested, 3.5% active. AID 1490; active = well fitted inhibition curve with a large enough effect; inconclusive = small, poorly fitted or top-dose-only effect, or another doubt; inactive = no such curve, though single readings can be large or run the other way;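 note: the enzyme is Sfp with the accession as filed and its product quenches rhodamine fluorescence; potency is the fitted concentration of half-maximal effect; 0% = enzyme reaction without inhibitor and -100% = no enzyme wells; top concentration of the series not given in the record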
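Step 1, compound plus 15 nM Sfp-PPTase, 15 min, room temperature. Step 2, add rhodamine-CoA (5 uM) and BHQ-2-YbbR (12.5 uM). Step 3, read 525/598 nm fluorescence at 0 and 30 min.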
Menin MLL FP FL: inhibitors of human menin-MLL interaction, wild-type MLL peptide; Fluorescence polarization, fluorescein-MLL peptide displacement from menin; FP activity change, % at 61.4 µM; 290,000 tested, under 10 active; AID 1766; inconclusive = falling polarisation curve, or a change in total fluorescence; inactive = total fluorescence flat and polarisation flat or rising; no compound was filed as active; the % refers to the polarisation; negative = inhibition;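 note: % of control where 0% means no effect; inhibitors lower the polarisation; unlabelled MLL peptide was the positive control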
ClpP mod: qHTS Assay for Activators of ClpP | Potency, µM (titrated, usually from 57.5 µM), for inactives: top-dose activity change, negative = active | purified B. subtilis ClpP, FRET peptide cleavage, 20 min | AID 651965, 2013 | 340,000 tested, 1.9% active | ATP-dependent Clp protease proteolytic subunit (Bacillus subtilis (strain 168)), P80244; active = well fitted falling curve with a large enough effect; inconclusive = small, poorly fitted or top-dose-only effect; inactive = no such curve, though single readings can be large or run the other way; note: potency is the fitted concentration of half-maximal effect; the source files actives as falling curves though it sought activators and does not explain the sign; nearly all actives have a fitted effect of over 65% in size; many hits overshoot -100%
Target sequence (P80244 whole entry, looked up): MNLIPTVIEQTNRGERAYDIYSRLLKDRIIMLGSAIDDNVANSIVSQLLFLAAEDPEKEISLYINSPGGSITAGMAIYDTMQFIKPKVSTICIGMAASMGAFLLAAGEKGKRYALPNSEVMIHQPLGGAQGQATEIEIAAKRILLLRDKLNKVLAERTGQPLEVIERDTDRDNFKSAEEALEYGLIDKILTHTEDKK
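ClpP 10 microg/mL final, pH 8 Tris/KCl buffer with BSA, glycerol, Tween-20; compound pinned in; FRET-FV substrate; RT 20 min; Ex320/Em430; ΔFRET vs ADEP 5.8 microM, DMSO, no enzyme.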
CtBP-E1A inh: inhibitors of CtBP/E1A interaction | AlphaScreen GST-E1A/His-CtBP binding, 1536-well; active compounds read low; control for the full effect not named in the record | activity change, % (no concentration beside the values) | 340,000 tested, 0.49% active | AID 651724; in the data active means activity change below about -65%; inconclusive means about -30% to -65%; inactive means above about -30%; note: % is set by controls: 0 for no effect and ±100 for the full control effect
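Homogeneous bead-based format: GST-tagged E1A captured on glutathione donor beads, His-tagged CtBP on nickel acceptor beads; compounds precede bead addition by 2 h at 37 °C.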
Starred values were filed as active, the others as inactive; ? = inconclusive; · = not tested or not shown; & = joins results of further samples; [ ] = another dose, or the depositor's remark. The order is random; any-hit rate near 5.3%.

SMILES | gsp agonist | TRPV1 potentiator | gsp antag | Sfp PPTase inh | Menin MLL FP FL | ClpP mod | CtBP-E1A inh
Cc1ccc(NCC(=O)Nc2ccc(Br)cc2)cc1C | 7% | -6 | 7% | 15% | -6.5 | 0.8% | ·
O=C(CSc1ccsc1[N+](=O)[O-])N1CCCCCC1 | -5% | 8 | 8% | -9% | -0.8 | -1.2% | ·
CC(=O)N(CCC(Cc1ccccc1)c1ccco1)Cc1ccco1 (stereo not given) | 11% | -5 | -12% | 45µM* | 8.6 | -0.1% | 4
CC1CCCN(C(=O)CSc2nnc(-c3ccco3)n2C)C1 (stereo not given) | 2%[15.4 µM] | -5 | -16% | 10% | -0.4 | · | 10
CC(NCC(O)COCCC12CC3CC(CC(C3)C1)C2)c1ccccc1 (stereo not given) | ? | 2 | 1% | -27% | -3.9 | -0.3% | -2
CC1CCCCN1C(=O)COC(=O)CNC(=O)c1sc2ccccc2c1Cl (stereo not given) | 50%[15.4 µM] | 4 | -1% | · | · | · | 1
C=CCn1c(SCC(=O)Nc2cc(C)cc(C)c2)nnc1-c1cnccn1 | 4% | -2 | -24% | 1% | 0.0 | -2.3% | -2
O=C(Nc1ccc(Cl)cc1F)C1CCN(S(=O)(=O)c2cccc3nonc23)CC1 | 0%[15.4 µM] | 17 | 9% | 8% | -11 | -8.0% | 1
CC1CCC(NC(=O)C2(C)CCC(=O)N2Cc2cccnc2)CC1 (stereo not given) | -8% | ? | 15% | 15% | 0.5 | 1.0% | 4
N#CN=CN1CC=C(c2ccc(Cl)cc2)CC1 | 4% | · | · | · | · | -1.1% | -4
COc1ccc(/C=C2\SC(N)=NC2=O)cc1Cl | -31%[inhibitor] | -18 | -4% | -29% | 0.9 | · | -18
O=S(=O)(Nc1cc(S(=O)(=O)N2CCCC2)ccc1O)c1ccc(Cl)s1 | -5%[15.4 µM] | 3 | -7% | · | · | · | -5
O=C(CCOc1ccccc1)Nc1ccccc1 | -4% | 8 | 4% | 15% | -2.4 | -1.6% | 12
COc1ccc(-c2c(C#Cc3ccsc3)c3cc(-c4ccc(OC)nc4)ccc3n2C)cc1 | · | 2 | 6% | · | · | 48% | 4
Cn1c(=O)c2[nH]c(N3CCN(c4ccccc4)CC3)nc2n(C)c1=O | 18% | -1 | 9% | 16% | 0.8 | -0.8% | ·
CCN(Cc1ccccc1)S(=O)(=O)c1cc(C(=O)NCCCN(C)C)ccc1OC | 22% | -4 | 6% | -1% | -2.7 | 0.8% | -2
Cc1cccc(N(C)C(=O)CN2C(=O)COc3ccc(S(=O)(=O)N4CCCCCC4)cc32)c1 | ? | -7 | -12% | 2% | · | -2.6%&-0.4% | ·
CC1(C)CCCC2=C1CC1C(=O)N(N)C(=O)C1C2 (stereo not given) | -8%[15.4 µM] | · | 12% | 5% | 3.8 | · | -3
CCN1C(=S)N[C@@H](c2cccc(C(F)(F)F)c2)C(C(=O)OC)=C1C | · | -11 | · | ? | -0.1 | · | ·
COC(=O)c1ccccc1NC(=O)NC1CCC(C)CC1 (stereo not given) | -53%[inhibitor] | -10 | -1% | 13% | 0.1 | 4.1% | ·
COCCNC(=O)C(c1ccco1)N(C(=O)Cn1nnc2ccccc21)c1ccc(C)cc1C (stereo not given) | 5% | -2 | 7% | 8% | 1.3 | -0.5% | 3
CCN1CCN(S(=O)(=O)c2ccc(Cl)c(C(=O)NC3CCC(C)CC3)c2)CC1 (stereo not given) | -18% | 2 | 9% | · | · | 0.6% | ·
COc1c(C)cc(Br)cc1C(=O)NCc1cccnc1 | -23% | 9 | 11% | 5% | -1.3 | 0.4% | 4
CN(Cc1ccc(Cl)cc1Cl)C(=O)CNC(=O)c1ccco1 | ? | -4 | 16% | 22% | · | -1.0% | 1
CC(C)n1c(CCCO)nc2ccccc21 | 11% | -7 | 11% | 5% | 3.8 | -3.0% | 4
Cc1ccccc1C(=O)NC(=S)N(C)CCc1ccccn1 | 30%[15.4 µM] | 8 | -4% | -17% | 0.0 | · | 2
O=c1cc(CSc2ccc(Cl)cc2)nc(N2CCOCC2)[nH]1 | ? | -1 | 5% | 9% | 6.2 | 1.3% | -7
COC(=O)N/N=C/c1cn(Cc2c(Cl)cccc2Cl)c2ccccc12 | -46% | -2 | -9% | -3% | 2.8 | 0.2% | 0
CCOc1ccc(OCCC(=O)Nc2ccc(F)cc2C)cc1 | -42%[inhibitor] | 13 | 12% | 11% | 0.7 | 0.7% | ·
Cc1ccc(CC(=O)Nc2cccc([N+](=O)[O-])c2)cc1 | 4% | -11 | -20% | 8% | -0.8 | -0.6% | ·

Laid out differently: entries from further up
C=CCn1c(SCC(=O)Nc2cc(C)cc(C)c2)nnc1-c1cnccn1
  gsp agonist = 4%
  TRPV1 potentiator = -2
  gsp antag = -24%
  Sfp PPTase inh = 1%
  Menin MLL FP FL = 0.0
  ClpP mod = -2.3%
  CtBP-E1A inh = -2

O=C(Nc1ccc(Cl)cc1F)C1CCN(S(=O)(=O)c2cccc3nonc23)CC1
  gsp agonist = 0%[15.4 µM]
  TRPV1 potentiator = 17
  gsp antag = 9%
  Sfp PPTase inh = 8%
  Menin MLL FP FL = -11
  ClpP mod = -8.0%
  CtBP-E1A inh = 1

(next part)
SMILES | gsp agonist | TRPV1 potentiator | gsp antag | Sfp PPTase inh | Menin MLL FP FL | ClpP mod | CtBP-E1A inh
O=C(N/N=C/c1ccc(Cl)cc1)c1ccc2c(c1)OCO2 | 2% | -1 | 1% | -9% | -4.5 | -1.5% | -14
CC(C)CN(C(=O)CSc1nnc2ccccn12)C1CCS(=O)(=O)C1 (stereo not given) | 12% | -4 | 19% | · | · | 4.0% | 2
O=C(Nc1nc(-c2ccc(Cl)cc2Cl)cs1)c1ccc(OCC2CCCO2)cc1 (stereo not given) | 20%[15.4 µM] | -6 | -17% | 4% | 12 | · | 3
COC(=O)Cc1ccc(NC(=S)Nc2ccccn2)cc1 | -11% | -8 | -3% | -10% | 1.2 | · | -1
Cc1ccc(C(C)C)c(OCC(=O)NNC(=O)Cn2[nH]c(=O)c3ccccc3c2=O)c1 | 17% | -1 | 1% | · | · | 1.8% | ·
Cc1ccc(C)c(OC(C)C(=O)Nc2nccs2)c1 (stereo not given) | 1% | -7 | ? | -2% | · | 0.8% | 0
CCOC(=O)c1[nH]c(C)c(C(=O)Nc2cc(Cl)ccc2C)c1C | 14% | 0 | 23% | -4% | 1.3 | -0.1% | 2
CCOC(=O)C(C)n1cnc2c(nnn2-c2ccc(C)cc2)c1=O (stereo not given) | 2% | -26 | 13% | 8% | 0.6 | 1.0% | 3
COc1ccc(OC)c(Nc2nc(=O)c3cccnc3s2)c1 | 7% | -5 | -8% | 2.8µM* | 4.5 | -0.2% | -15
COC(=O)C1=C2c3[nH]c4ccccc4c3CCN2C(=O)CC1 | · | · | -7% | · | · | -1.5% | 6
CCc1ccc(C(C)NC(=O)c2cc(C)oc2C)cc1 (stereo not given) | -2% | 11 | 6% | 16µM* | 1.5 | -0.7% | -1
O=C(Nc1ccc(S(=O)(=O)Nc2nccs2)cc1)c1cc(-c2ccccc2Cl)nc2ccccc12 | -77%[inhibitor] | 24 | -8% | -4% | 5.3 | -0.3% | -6
N#C/C(=C\c1ccco1)C(=O)NCC1CCCO1 (stereo not given) | ? | -2 | 12% | 0% | 2.5 | 0.9% | -5
O=C(OCc1cccc(F)c1)c1ccc2c(c1)-c1ccccc1C2=O | -46%[inhibitor] | 21 | -8% | 12% | 7.7 | 0.6% | -13
Cc1nnc(SCC(=O)N2CC(=O)Nc3ccccc32)n1C | -4% | 4 | 10% | 10% | 3.9 | -2.1% | 0
CC(=O)Oc1ccc(C(=O)NCc2ccco2)cc1 | -52%[inhibitor] | 6 | 9% | 9% | 0.7 | · | 2
C/C(=N\NC(=O)c1cccc(Cl)c1)c1cccc(NC(=O)C(C)C)c1 | -38%[inhibitor] | -4 | -4% | 0% | -1.8 | 1.9% | -3
CCOC(=O)c1c(C)oc2c(CN3CCN(C)CC3)c(Br)c(OC)c(O)c12 | 7% | -11 | 9% | ? | -3.0 | -1.8% | -6
CCOc1ccc(S(=O)(=O)NCCC(=O)NCC(c2ccc(OC)cc2)N2CCCCC2)cc1 (stereo not given) | ? | 0 | -3% | · | · | -5.8% | 5
CCN1C(=O)C(=Cc2cccc(OC)c2Oc2ccc([N+](=O)[O-])cc2[N+](=O)[O-])SC1=S | -16% | 6 | -27% | ? | 1.9 | · | -14
Oc1c(Br)cc(Br)cc1/C=N/NC(=S)N[C@H]1CC2C=CC1C2 (stereo not given in full) | 9%[15.4 µM] | 25 | -19% | 3% | 6.9 | · | -25
COc1ccc(NC(=O)C2=CC(c3ccc(C)cc3)=NS(=O)(=O)N2C)cc1 | -42%[inhibitor] | ? | -6% | 13% | 12 | 1.1% | 4
Cc1ccc2nc(NC(=O)CSc3nnc(C)c(=O)n3N)sc2c1 | 2%[15.4 µM] | 1 | 9% | 9% | -0.6 | -3.5% | -1
O=C(NCCN1CCN(c2ccccc2)CC1)Nc1cccc(Br)c1 | 12% | 7 | 6% | 3% | -7.2 | -0.3%&0.1% | ·
COc1ccc(CNC(=O)C2CCCN(S(=O)(=O)N3CCC(C)CC3)C2)c(OC)c1 (stereo not given) | ? | 6 | -27% | 12% | -0.3 | 2.2% | 20
CC1Cc2ccccc2N1C(=O)c1ccc(N2CCCC2)c([N+](=O)[O-])c1 (stereo not given) | 23% | 14 | ? | -10% | 2.9 | · | ?
CCN1CCN(c2ccc(N3CCN(S(=O)(=O)c4ccc(C)c([N+](=O)[O-])c4)CC3)nn2)CC1 | 0% | 2 | 3% | · | · | -3.8% | -6
CCCCc1cc(=O)oc2cc(C)c(CN3CCCC3)c(O)c12 | -2% | -11 | 1% | -19% | 11 | -5.1% | -2
O=C(CN1C(=O)NC2(CCCCC2)C1=O)Nc1ccccc1N1CCCCC1 | 10% | -9 | 5% | · | · | -1.7% | ·
CCCn1c(CN(Cc2ccccc2)Cc2ccccc2)nc2c1c(=O)n(C)c(=O)n2C | 21% | -3 | ? | ? | 1.5 | -1.8% | 0
COc1cccc(/C=N/Nc2nccnc2Cl)c1O | -28% | 3 | -1% | 5% | 0.2 | · | -93*
